Screens (PubChem BioAssay)
GLA inh pH 4.5: qHTS Assay for Inhibitors of Human alpha-Galactosidase at pH 4.5; purified enzyme, 4-MU-alpha-Gal fluorescence, pH 4.5; Alpha-galactosidase A (Homo sapiens), P06280; 230,000 tested, under 10 active; activity change, negative = inhibition, % at 105 µM; AID 1467, 2008; inconclusive = small, poorly fitted or top-dose-only inhibition, or a rising curve; inactive = flat fitted curve, though single readings scatter; no compound was filed as active;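 further: 0% = full activity with enzyme and -100% = basal without enzyme; dose as in the result columns while the protocol names 77 µM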
Rango release inh: qHTS Assay for Inhibitors of RanGTP induced Rango (Ran-regulated importin-beta cargo) - Importin beta complex dissociation. Biochemical FRET Rango-importin beta, RanGTP-induced dissociation. Snurportin-1 (Homo sapiens) + GTP-binding nuclear protein Ran (Homo sapiens) + Importin …. 340,000 tested, 0.071% active. Potency, µM (highest dose often 46.1 µM), without a hit: at the top dose activity change, negative = inhibition. AID 540253, 2011; active means falling FRET ratio curve, often poorly fitted, with flat reads before Ran was added; inconclusive means other falling curves, or compound fluorescence or quenching; inactive means flat or rising ratio curve;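 further: potency means the concentration at half of the fitted maximal effect; % of control where 0% means no effect; nearly all actives have a fitted effect of over 45% in size; -100% = wells without RanGTP and RCC1; the record marks most hits as doubtful in a second field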
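Two FRET readings bracket the reaction: one 5 min after compound meets Rango–importin beta, another 45 min after RanGTP-RCC1 (0.6 uM Ran, 0.2 uM RCC1, 2 mM GTP) is added. Only the second defines inhibition.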
miR-21 reporter: qHTS Assay for Modulators of miRNAs and/orActivators of miR-21; HeLa miR-21 FLuc reporter, luciferase, 48 h; 340,000 tested, under 10 active; Potency, µM (highest dose often 38.3 µM), for the others: at the highest dose reporter change, positive = more light; active = well fitted rising curve with a large enough effect; inconclusive = small, poorly fitted or top-dose-only effect; inactive = no such curve, though single readings can be large or run the other way;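 further: % of control where 0% means no effect; miR-21 action dims this reporter so a rising signal means less miR-21 action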
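Compounds were titrated across several concentrations (up to approximately 40 uM) and incubated 48 hours with HeLa miR-21-FLuc reporter cells (miR-21 target sequence downstream of FLuc, endogenous miR-21). Readout was firefly luciferase luminescence after lytic detection reagent.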
Rango-impB inh: qHTS Assay for Inhibitors of Rango (Ran-regulated importin-beta cargo) - Importin beta complex formation; AID 540263, 2011; Rango CFP/YFP FRET sensor + importin beta, 45 min; Importin subunit beta-1 (Homo sapiens), Q14974; 340,000 tested, 0.031% active; Potency, µM (series often up to 92.2 µM), for inactives: at the highest dose inhibition of complex formation; active = rising FRET ratio curve, often small or poorly fitted; inconclusive = mostly compound fluorescence or quenching in the first reads; inactive = flat curves in all reads;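 further: potency means the concentration at half of the fitted maximal effect; 0% = DMSO wells and 100% = buffer wells lacking importin beta; nearly all actives have a fitted effect of over 15% in size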
Target sequence (Q14974 whole entry, looked up): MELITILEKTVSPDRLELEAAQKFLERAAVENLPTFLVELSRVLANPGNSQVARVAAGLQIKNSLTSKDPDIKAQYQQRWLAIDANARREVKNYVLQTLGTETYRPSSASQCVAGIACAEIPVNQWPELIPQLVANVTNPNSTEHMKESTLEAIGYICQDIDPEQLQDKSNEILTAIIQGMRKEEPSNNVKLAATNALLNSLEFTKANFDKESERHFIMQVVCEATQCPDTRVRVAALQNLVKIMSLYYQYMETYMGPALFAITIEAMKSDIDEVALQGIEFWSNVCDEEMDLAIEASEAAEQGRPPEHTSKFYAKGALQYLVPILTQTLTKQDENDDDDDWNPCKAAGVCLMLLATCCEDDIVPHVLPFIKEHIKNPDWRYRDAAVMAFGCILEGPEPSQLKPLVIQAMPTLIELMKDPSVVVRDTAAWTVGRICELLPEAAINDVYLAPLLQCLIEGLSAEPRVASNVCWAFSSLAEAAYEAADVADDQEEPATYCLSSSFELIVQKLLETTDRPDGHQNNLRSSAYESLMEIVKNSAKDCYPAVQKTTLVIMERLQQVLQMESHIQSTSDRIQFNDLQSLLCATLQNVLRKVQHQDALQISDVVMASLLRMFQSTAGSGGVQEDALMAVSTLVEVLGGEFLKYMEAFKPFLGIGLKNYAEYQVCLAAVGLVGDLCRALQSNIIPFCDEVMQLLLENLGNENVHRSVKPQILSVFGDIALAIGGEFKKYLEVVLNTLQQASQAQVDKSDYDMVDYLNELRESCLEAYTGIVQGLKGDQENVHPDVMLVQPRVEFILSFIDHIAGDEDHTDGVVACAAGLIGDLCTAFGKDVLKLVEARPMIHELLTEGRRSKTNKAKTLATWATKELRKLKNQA
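FRET biosensor (snurportin 1 IBB flanked by EYFP and cerulean), 50 nM, with compound 5 min, then 0.125 microM importin beta in PBS, 1 mM DTT, 0.02% Tween-20, 0.1% BSA. CFP/YFP ratio read after 45 min at room temperature; pre-read flags interference.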
Numbers without * were called inactive; ? = inconclusive; / = no result given.

Codes – A = GLA inh pH 4.5; B = Rango release inh; C = miR-21 reporter; D = Rango-impB inh
COc1ccc(C(=O)N/C(=C\c2cn(S(=O)(=O)N(C)C)c3ccccc23)C(=O)N2CCN(C)CC2)cc1
  A: / | B: 22.6% | C: -0.8% | D: -2.3%
CC[C@@]1(C(=O)OC)N[C@H](CN(C)S(=O)(=O)c2ccc(C(C)(C)C)cc2)[C@@H]2C(=O)N(Cc3ccccc3)C(=O)[C@@H]21
  A: / | B: 20.2% | C: / | D: 1.4%
CC[C@H](C)C(C(=O)N1CCN(C(=O)OC(C)(C)C)CC1)n1cc(C(CO)NC(=O)OC(C)(C)C)nn1 (stereo partly specified)
  A: 4.4 | B: 0.9% | C: -1.3% | D: 2.7%
Cc1ccc(-c2ccccc2)n1-c1cccc(C(=O)O)c1
  A: -21.3 | B: 5.6% | C: -38.6% | D: 2.1%
CC(C)NC(=O)c1ccc(Sc2ccccc2)c([N+](=O)[O-])c1
  A: -1.0 | B: -8.6% | C: -10.5% | D: -4.7%
C(=C\c1nnc(-c2cccs2)o1)/c1ccccc1
  A: 6.7 | B: -7.1% | C: -55.9% | D: -2.5%
O=c1ccn(Cc2ccccc2Cl)cc1
  A: -4.6 | B: -7.0% | C: -5.3% | D: 4.5%
COc1ccccc1CNC(=O)C(=O)NCC1OCCN1S(=O)(=O)c1ccc2c(c1)OCCO2 (stereo unspecified)
  A: -1.3 | B: -7.9% | C: -8.8% | D: 3.9%
CN(CC(=O)NCc1ccccn1)S(=O)(=O)c1ccccc1
  A: -2.6 | B: 0.8% | C: -0.5% | D: 1.7%
COCc1c(C(=O)N/N=C(/C)c2ccc(OCc3ccccc3)cc2)nnn1-c1nonc1N
  A: / | B: 7.8% | C: -47.0% | D: 2.2%
CC(C)(C)n1nnnc1C(c1cccc(C#N)c1)N1CCCCCC1 (stereo unspecified)
  A: 6.6 | B: 16.3% | C: -3.2% | D: 1.6%
COCCN(C(=O)CSc1nnc(-c2cccc(C)c2)n1C)c1c(N)n(Cc2ccccc2)c(=O)[nH]c1=O
  A: 0.5 | B: 1.6% | C: -2.1% | D: -0.2%
O=C(O)CN1C(=O)C(=O)N(Cc2cccc(F)c2)C1=O
  A: / | B: 7.0% | C: -3.1% | D: 3.2%
Cc1ccc(NC(=O)CNC(=O)c2cccs2)nc1
  A: / | B: 31.8% | C: / | D: -1.7%
O=[N+]([O-])c1cccc(-c2nc(-c3cccs3)c(-c3cccs3)[nH]2)c1
  A: -19.4 | B: 8.5% | C: 20.5% | D: -3.6%

A second format for 4 compounds above.
compound	GLA inh pH 4.5	Rango release inh	miR-21 reporter	Rango-impB inh
CC(C)NC(=O)c1ccc(Sc2ccccc2)c([N+](=O)[O-])c1	-1.0	-8.6%	-10.5%	-4.7%
Cc1ccc(NC(=O)CNC(=O)c2cccs2)nc1	/	31.8%	/	-1.7%
COc1ccc(C(=O)N/C(=C\c2cn(S(=O)(=O)N(C)C)c3ccccc23)C(=O)N2CCN(C)CC2)cc1	/	22.6%	-0.8%	-2.3%
Cc1ccc(-c2ccccc2)n1-c1cccc(C(=O)O)c1	-21.3	5.6%	-38.6%	2.1%

Following part.
Codes – A = GLA inh pH 4.5; B = Rango release inh; C = miR-21 reporter; D = Rango-impB inh
Cc1ccc(NC(=O)COc2ccc3oc4c(c3c2)CCCC4)nc1
  A: -6.2 | B: -10.7% | C: -8.2% | D: 2.5%
Cc1ccc(SCC(=O)NNC(=O)CNC(=O)c2ccc(Br)cc2)cc1
  A: / | B: 3.2% | C: / | D: -0.4%
COC(=O)CNC(=O)C1CCCN1C(=O)CNC(=O)OCc1ccccc1 (stereo unspecified)
  A: / | B: 5.2% | C: -1.9% | D: 0.6%
CC(C)(C)C(=O)NC(=S)Nc1ccc(Cc2ccncc2)cc1
  A: / | B: 3.1% | C: 8.0% | D: 2.8%
COC(=O)CNc1nc(Cl)nc(N2CCC(C)CC2)n1
  A: 5.3 | B: -2.9% | C: 0.2% | D: 4.8%
CCC(C)c1ccc(NC(=S)NCCn2cc(Br)cn2)cc1 (stereo unspecified)
  A: -14.2 | B: -14.4% | C: -8.8% | D: -0.6%
Cc1nc(-c2cccnc2)sc1C(=O)Nc1ccc(F)cc1F
  A: 1.2 | B: -2.2% | C: -5.1% | D: -1.1%
COc1ccc2oc(C(=O)OC(C)C(=O)N3C(C)CCCC3C)c(C)c2c1 (stereo unspecified)
  A: / | B: -6.1% | C: / | D: -3.0%
CC(C(=O)NCc1ccccc1)N1C(=O)c2ccccc2C1=O (stereo unspecified)
  A: / | B: -0.3% | C: 2.3% | D: 2.3%
COc1ccc(NC(=O)CN2CCN(Cc3ccc4c(c3)OCO4)CC2)cc1OC
  A: -6.3 | B: 3.5% | C: -2.3% | D: 1.4%
CCn1c(SCC(=O)NCc2ccc3c(c2)OCO3)nnc1-c1cccs1
  A: -6.8 | B: 1.0% | C: -8.0% | D: 0.1%
COc1ccc(S(=O)(=O)N(CCc2ccccc2)CC(=O)NC(C)C)cc1
  A: -2.3 | B: -22.2% | C: -8.3% | D: -2.6%
S=C(Nc1ccccc1)Nc1ccc(Cl)cn1
  A: 3.7 | B: 1.5% | C: -45.2% | D: -1.1%
Cn1c(=O)[nH]c(=O)c2c1nc(Br)n2CCSc1nc2ccccc2o1
  A: 2.7 | B: 7.8% | C: -8.4% | D: -3.7%
Cc1nc2ccc(NC(=O)NCCCO)cc2s1
  A: 4.8 | B: ? | C: -11.1% | D: -1.1%
Cn1cc(CN2CCCC(CO)(Cc3ccccc3)C2)c2ccccc21 (stereo unspecified)
  A: 0.9 | B: -0.7% | C: 4.5% | D: -3.5%
COc1ccc(NC(=O)CSCC(=O)Nc2ccc(S(=O)(=O)N3CCOCC3)cc2)cc1
  A: / | B: -8.3% | C: / | D: 0.7%
Cc1cccn2c(CNC3CCCc4ccccc43)c(C(=O)N3CCCCC3)nc12 (stereo unspecified)
  A: -8.9 | B: -0.4% | C: 1.0% | D: -1.8%
Cc1ccsc1/C=C1\Oc2cc(OCC(=O)c3ccccc3)ccc2C1=O
  A: -11.2 | B: ? | C: -14.0% | D: ?
COc1ccc(S(=O)(=O)NCc2cccnc2)cc1OC
  A: / | B: -8.2% | C: 0.7% | D: 3.4%
CCCCNC(=S)Nc1ccc([N+](=O)[O-])cc1
  A: -11.5 | B: -4.3% | C: 25.3% | D: -1.5%
CCc1nnc(NC(=O)CSc2nnc(CNC(=O)c3cc(OC)c(OC)c(OC)c3)o2)s1
  A: 4.8 | B: 0.5% | C: 5.1% | D: 0.1%
O=c1c2[nH]c3ccccc3c2ncn1Cc1cccnc1
  A: 8.6 | B: -6.0% | C: 0.6% | D: -0.4%
Cc1cc(C)c(-c2c(O)c3c(n(C)c2=O)CC(C)(C)CC3=O)c(C)c1
  A: 1.9 | B: -5.0% | C: ? | D: -1.5%
O=C1NC(c2ccc(Br)cc2)Oc2ccccc21 (stereo unspecified)
  A: / | B: 0.3% | C: -1.7% | D: 1.1%
Cn1c(=O)c2c(ncn2CC(=O)OCC(=O)Nc2ccccc2Cl)n(C)c1=O
  A: 4.9 | B: 3.9% | C: -4.5% | D: -4.0%
Cn1c(Cc2ccccc2)nnc1SCC(=O)NC1CCCCC1
  A: -1.5 | B: 0.4% | C: -0.3% | D: -0.2%
CCC(CO)NCc1ccc(OCC(O)c2ccccc2)c(OC)c1 (stereo unspecified)
  A: / | B: ? | C: -9.7% | D: -2.7%
FC(F)(F)c1cc(CCN2CCNC[C@@H]2Cc2ccccc2)cc(C(F)(F)F)c1
  A: / | B: -14.5% | C: / | D: -0.5%
CCOC(=O)c1csc(NC(C)=O)n1
  A: 2.7 | B: -8.9% | C: -7.8% | D: -3.6%
CCc1nnc(SCC(=O)NC2CC2)n1CC
  A: / | B: -5.7% | C: -0.9% | D: 0.4%
CCCCC(=O)NC(c1ccccc1)c1ccc2cccnc2c1O (stereo unspecified)
  A: / | B: -12.0% | C: ? | D: -1.2%
Cc1ccc(-c2noc(CN(C)C(=O)c3ccoc3C)n2)cc1
  A: / | B: 17.2% | C: -31.4% | D: 2.6%
COC(=O)c1ccc(C2C(C(=O)c3cc4ccccc4o3)=C(O)C(=O)N2CCCN(C)C)cc1 (stereo unspecified)
  A: 2.5 | B: 0.7% | C: 0.8% | D: 4.3%
CCOc1ccc(S(=O)(=O)N(CC)CC)cc1NC(=O)c1ccc(N2CCCC2=O)cc1
  A: / | B: 14.5% | C: -0.6% | D: -1.3%
COC(=O)CCCNC(=O)OCc1ccc([N+](=O)[O-])cc1
  A: 7.0 | B: 14.4% | C: -2.9% | D: -1.6%
COc1cc(Br)cc2cc(C(=O)NCC3CCCO3)c(=O)oc12 (stereo unspecified)
  A: 8.8 | B: -9.2% | C: -2.5% | D: 0.2%
O=CN1CCN(C(=S)NC(=O)c2ccc(Cl)cc2)CC1
  A: / | B: 4.3% | C: -0.1% | D: -1.1%
O=C(O)Cc1ccc(C(=O)c2ccccc2F)s1
  A: -9.7 | B: -17.2% | C: 0.4% | D: ?
Cc1ccc(C(=O)C(OC(=O)CNC(=O)c2ccc(Cl)cc2)c2ccccc2)cc1 (stereo unspecified)
  A: 5.1 | B: 13.7% | C: 0.0% | D: -1.8%
CCC1CCC(NC(=O)Nc2cccc(OC)c2)CC1 (stereo unspecified)
  A: -4.3 | B: 11.3% | C: -34.3% | D: 3.4%
Cc1nn(Cc2cccc(C(=O)NCC(C)C)c2)c(C)c1Br
  A: -1.7 | B: -16.7% | C: -4.6% | D: -2.4%
Cc1cccc(C)c1NC(=O)Cn1c(=O)n(CCCC(=O)NCc2ccco2)c(=O)c2sccc21
  A: 7.1 | B: -1.3% | C: 2.2% | D: -3.2%
COc1ccc(/C=N/Nc2cc(C)nc(N3CCOCC3)n2)c(OC)c1
  A: -5.3 | B: 5.5% | C: 1.4% | D: -0.4%
Fc1ccc(C2CCCN2Cc2nc(Cc3ccccc3F)no2)cc1 (stereo unspecified)
  A: 6.3 | B: 8.2% | C: -1.5% | D: 4.5%
CCSC1=C(C#N)C(c2ccc(OC)c(OC)c2)CC(=O)N1 (stereo unspecified)
  A: -6.6 | B: -9.4% | C: -2.7% | D: 1.5%
COc1ccc2[nH]c3c(Cl)ncnc3c2c1
  A: -8.5 | B: -4.3% | C: 12.1% | D: 0.1%
CCN(CC)C(=O)CN(c1cc(Cl)ccc1OC)S(=O)(=O)c1ccc(C)c([N+](=O)[O-])c1
  A: -11.2 | B: 9.0% | C: -10.0% | D: -1.1%
CCCCCCCCNS(=O)(=O)CCNCc1ccccc1
  A: / | B: -10.1% | C: / | D: -1.3%
COc1ccc(N=Cc2c(O)c3ccccc3n2C(C)=O)cc1
  A: -8.9 | B: ? | C: -26.1% | D: ?
O=C1CC(c2ccccc2)CC(O)=C1C=Nc1ccc(Cl)cc1 (stereo unspecified)
  A: 0.0 | B: -23.1% | C: -11.3% | D: -1.4%
N#Cc1ccccc1S(=O)(=O)N1CCN(Cc2c(O)ccc3ccccc23)CC1
  A: / | B: -0.6% | C: / | D: 3.3%
CC[C@@H](C)[C@@H]1CN([C@@H](C)CN2CCC[C@H]2CN2C(N)=NC[C@H]2CC(C)C)C(=N)N1CCc1ccc(Cl)c(Cl)c1
  A: / | B: -4.2% | C: / | D: 1.3%
CCN(CC)c1ccc(/C=C(/C#N)c2nc3ccc(C)cc3[nH]2)c(OC(C)C)c1
  A: -13.9 | B: ? | C: -1.8% | D: ?
CCOc1ccc(NC(=O)CN(C)S(=O)(=O)c2cccc3cccnc23)cc1
  A: / | B: 7.7% | C: -1.7% | D: -1.0%

A portion of the library. The share of hits here may be higher or lower than overall.
